Bioassay records as filed in PubChem BioAssay.
Six1-Eya2 blk = qHTS Assay for Inhibitors of the Six1/Eya2 Interaction | AlphaScreen GST-Six1/His-Eya2 binding, biochemical; hits give low values; control for the full effect not named in the record | activity change, % (no concentration beside the values) | 360,000 tested, 0.56% active | AID 651725, 2012; in the data active = activity change below about -65%; inconclusive = about -30% to -65%; inactive = above about -30%; further: on the % scale 0 is the no-effect control and ±100 the full control effect; compound concentration not given in the record
Target sequence (O00167 whole entry, looked up): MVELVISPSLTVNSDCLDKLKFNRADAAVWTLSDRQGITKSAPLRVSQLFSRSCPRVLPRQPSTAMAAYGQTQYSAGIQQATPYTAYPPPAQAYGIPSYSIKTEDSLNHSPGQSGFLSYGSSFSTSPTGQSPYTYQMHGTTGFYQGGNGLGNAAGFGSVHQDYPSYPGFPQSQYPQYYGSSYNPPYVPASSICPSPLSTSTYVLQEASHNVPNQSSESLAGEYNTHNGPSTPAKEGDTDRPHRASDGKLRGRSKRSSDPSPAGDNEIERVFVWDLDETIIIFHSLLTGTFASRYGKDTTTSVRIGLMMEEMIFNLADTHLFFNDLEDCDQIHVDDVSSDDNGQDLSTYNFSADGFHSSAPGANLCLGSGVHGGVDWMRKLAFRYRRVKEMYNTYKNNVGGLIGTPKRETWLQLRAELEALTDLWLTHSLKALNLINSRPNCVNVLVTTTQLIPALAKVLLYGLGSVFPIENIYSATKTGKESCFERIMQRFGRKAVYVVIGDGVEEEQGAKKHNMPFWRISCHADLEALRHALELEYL
Target sequence (Q15475 whole entry, looked up): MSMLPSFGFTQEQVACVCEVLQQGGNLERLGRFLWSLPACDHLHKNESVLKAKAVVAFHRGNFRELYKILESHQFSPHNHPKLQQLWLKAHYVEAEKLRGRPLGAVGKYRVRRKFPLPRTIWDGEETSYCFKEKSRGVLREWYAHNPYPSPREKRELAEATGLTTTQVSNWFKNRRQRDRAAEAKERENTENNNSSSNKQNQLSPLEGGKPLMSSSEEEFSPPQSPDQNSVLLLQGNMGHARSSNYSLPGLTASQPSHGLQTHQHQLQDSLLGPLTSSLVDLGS
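Six1/Eya2 binding was read as AlphaScreen signal after compounds were pinned into GST-Six1 plus His-tagged Eya2 (5X stock 250/500 nM) in pH 8.0 Tris/NaCl/TCEP buffer, beads added, then incubated 1 h, 37 C, dark.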
gsp agonist = qHTS for Agonist of gsp, the Etiologic Mutation Responsible for Fibrous Dysplasia/McCune-Albright Syndrome: qHTS; 340,000 tested, 0.13% active; Potency, µM (top dose mostly 76.9 µM), for inactives: top-dose activation (cAMP increase), actives largely listed as activators; gsp mutant cells, cAMP HTRF, 30 min; control for the full effect not named in the record; active = well fitted activation curve with a large enough effect; inconclusive = small, poorly fitted or top-dose-only effect, or another doubt; inactive = no such curve, though single readings can be large or run the other way; cell line not stated here;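 further: phosphodiesterase inhibitor Ro 20-1724 added with compounds to block cAMP breakdown; potency means the concentration at half of the fitted maximal effect; nearly all actives have a fitted effect of over 60% in size; about a fifth of the inactives were tested at one dose only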
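Cells in DMEM/10% FBS with G418 were pretreated with compounds in DMSO plus […] (300 uM stock) for 30 min at 37C. cAMP was measured by HTRF (cAMP-d2 plus anti-cAMP antibody-K) after 30 min at room temperature.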
D2 potentiator = Beta-Arrestin HTS for Positive Allosteric Modulators of the Human D2 Dopamine Receptor: Potentiators; 360,000 tested, 0.23% active; DiscoveRx D2 beta-arrestin cells, luminescence, 90 min; 100% = 57 uM dopamine signal; D(2) dopamine receptor (Homo sapiens), P14416; potentiation, % (concentration not given with the values); active = potentiation of 50% or more; inconclusive = 30% to 50%; inactive = 30% or less;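 further: compound concentration not given in the record; tested on top of an EC20 dose of dopamine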
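PathHunter beta-arrestin assay in DiscoveRx D2 cells. Compounds were added with an EC20 of dopamine (50 nM final) for 90 min at 37 deg C. Luminescence was read 1 h after detection reagent, with 57 uM dopamine as the EC100 control.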
CtBP-E1A blk = qHTS Assay for Inhibitors of the CtBP/E1A Interaction; AlphaScreen GST-E1A/His-CtBP binding, 1536-well; hits give low values; control for the full effect not named in the record; activity change, % (no concentration beside the values); 340,000 tested, 0.49% active; in the data active means activity change below about -65%; inconclusive means about -30% to -65%; inactive means above about -30%; further: on the % scale 0 is the no-effect control and ±100 the full control effect; compound concentration not given in the record
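Steps: dispense buffer (Tris pH 8.0, NaCl 300 mM, TCEP 1 mM, BSA, Tween 20); add 5X protein mix (GST-E1A, His-CtBP, 125 nM each); pin 23 nL compound; 2 h at 37 °C, dark; add 5X beads (50 ug/mL); 1 h; read.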
D2 ag = Beta-Arrestin HTS for Positive Allosteric Modulators of the Human D2 Dopamine Receptor: Agonists; D(2) dopamine receptor (Homo sapiens), P14416; DiscoveRx PathHunter D2 beta-arrestin, luminescence, 90 min; 100% = 57 uM dopamine signal; activation, % (concentration not given with the values); 360,000 tested, 0.084% active; AID 624465, 2012; in the data active = activation above about 40%; inconclusive = about 15% to 40%; inactive = below about 15%; further: compound concentration not given in the record; the text of the record calls up to 30% inactive
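Agonist mode: compounds alone added to overnight-plated D2 PathHunter cells for 90 min at 37 C, with 57 uM final dopamine (EC100) defining full response. Beta-arrestin recruitment detected by chemiluminescent reagent, read after 1 h at ambient temperature.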
gsp antag = qHTS for Antagonists of gsp, the Etiologic Mutation Responsible for Fibrous Dysplasia/McCune-Albright Syndrome: qHTS. AID 624288, 2012. gsp-mutant cells, cAMP HTRF, 30 min; control for the full effect not named in the record. 340,000 tested, 0.4% active. Potency, µM (highest dose often 76.9 µM), for the others: at the top dose activity change, negative = inhibition, hits mostly inhibitors; active = falling curve of any shape with a large fitted effect; inconclusive = falling curve, mostly with a smaller effect; inactive = flat or rising curve; cell line not stated here;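 further: intracellular cAMP measured with PDE inhibitor Ro 20-1724 present during compound exposure; potency means the concentration at half of the fitted maximal effect; on the % scale 0 is the no-effect control and ±100 the full control effect; nearly all actives have a fitted effect of over 65% in size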
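Cells in G418 medium, seeded 16-24 h, 37C; buffer exchange to DPBS + 1 mM CaCl2, 0.5 mM MgCl2, 0.05% BSA; cpds in DMSO + […] (300 uM stock), 30 min 37C; HTRF cAMP detection.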
* hit, by the source's call; ? = inconclusive; · = not tested or not shown; [ ] = remark or other dose.

Compound	gsp agonist	CtBP-E1A blk	gsp antag	Six1-Eya2 blk	D2 ag	D2 potentiator
COc1cn(-c2ccccc2)nc1C(=O)Nc1ccc(C)cc1Cl	-6%	3	?	-4	3.8	-2
CNC(=O)C1C2C=CC3(O2)C1C(=O)N(CCOC)C3C(=O)NCc1ccc(OC)cc1 (stereo not drawn)	-4%	0	24%	27	-3.6	-18
CCOC(=O)c1ccc(NC(=S)N(CCN2CCCCCC2)Cc2ccco2)cc1	16%	-13	-14%	-17	-1.4	-20
Cc1ccc(OCc2cc(C(=O)N(C)CCc3ccccn3)no2)cn1	-25%	6	4%	3	1.3	-5
CCCn1cc2c(c1-c1cccc(C)c1)c(=O)n(C)c(=O)n2C	20%	-1	2%	-3	-4.0	7
O=c1cc(/C=C/c2cccs2)[nH]c2ccccc12	?	-1	?	-2	0.4	-14
FC(F)Oc1ccc(/C=N/n2c(Cc3ccc(Br)cc3)n[nH]c2=S)cc1	5%[15.4 µM]	-10	-24%	-7	-3.6	-9
COc1ccc(S(=O)(=O)N(Cc2cccs2)C2CCCC2)cc1	-3%	19	-10%[15.4 µM]	33	0.6	-21
CC(=O)N1CCN(c2nc3cc4c(cc3nc2NS(=O)(=O)c2ccccc2)OCCO4)CC1	-29%	-1	-12%	0	-0.5	14
OCCNCCOc1ccc(Cl)c(Cl)c1	-2%	11	-9%	6	-4.1	-18
C=CCn1c(=S)[nH]c2cc(C(=O)NCCc3ccc(S(N)(=O)=O)cc3)ccc2c1=O	?	-1	5%	1	3.4	-1
CCn1c(SCC(=O)N2CCCc3ccccc32)nc2ccccc2c1=O	-6%	-15	1%	0	0.1	-12
CC(C)NC(=S)N/N=C/c1c[nH]c2ccccc12	-5%[15.4 µM]	-5	17%	-13	3.4	-14
N#CC1(NC(=O)COC(=O)Cn2[nH]c(=O)c3ccccc3c2=O)CCCCC1	0%[15.4 µM]	-1	-1%	-1	-8.6	-18
COc1ccc(CCOC2OC(CO)C(OC(=O)/C=C/c3ccc(O)c(OC)c3)C(O[C@H]3O[C@@H](C)[C@H](O)[C@@H](O)[C@H]3O)C2O)cc1O (stereo partly drawn)	-89%[inhibitor]	6	4%	1	4.0	-2
CN(Cc1cnn(C)c1)C(=O)C1CCCCC1C(=O)O (stereo not drawn)	-1%	12	3%	-11	-2.8	8
CCNc1nc(NCC)n2c(SCC(=O)N3CC4(C)CC3CC(C)(C)C4)nnc2n1 (stereo not drawn)	13%	-20	-8%	-1	-3.1	-11
Clc1ccc(-c2csc(N3CCC(c4ccccc4)C3)n2)cc1 (stereo not drawn)	0%	-2	-6%	3	-0.1	-14
Cc1csc(SCC(=O)NC(=O)NC(C)C)n1	10%[15.4 µM]	-9	2%	-21	-1.3	-2
Cn1nnnc1SCC(=O)NC(=O)Cc1ccccc1	?	10	-1%	-2	-1.5	-1
O=C(c1ccccc1F)N1CCC(N2CCCCCC2)CC1	-25%	-3	8%	-3	-5.8	-14
CCCn1cc(S(=O)(=O)CC(=O)Nc2ccc(OCC)cc2)c2ccccc21	17%	4	?	-2	3.6	7
CCOC(=O)C(C)Sc1nnc(NC(=O)c2cccc([N+](=O)[O-])c2C)s1 (stereo not drawn)	-16%	1	?	-4	-1.8	13
CC(C)CNC(=O)C(=O)NN=C1CCCCCC1	1%	2	13%	-10	-1.2	-4
Cc1cccc(C(=O)N(c2ccccn2)C(C)c2ccco2)c1 (stereo not drawn)	5%[15.4 µM]	-1	8%	-8	-3.1	-4
CN(CC(=O)Nc1sccc1C#N)C1CCCCC1	?	-4	8%	-15	-0.4	2
CCN1C(=O)[C@H]2[C@@H](c3ccc(Cl)cc3)N3C(=O)CN(CCOC)C(=O)[C@@]3(C)[C@H]2C1=O	1%	-9	-6%	16	-2.3	-5
O=C(O)/C=C/C(=O)N1CCN(Cc2ccc3c(c2)OCO3)CC1	-6%	·	7%	-9	3.6	-15
O=C(NCC1CCCO1)/C(=C\c1ccccc1F)NC(=O)c1ccccc1 (stereo not drawn)	10%[15.4 µM]	7	·	0	-0.4	-12
CN(Cc1ccc(F)cc1)S(=O)(=O)c1nnc(NC(=O)c2ccccc2)s1	?	-6	-28%	7	-3.3	-2
Cc1cccc(C)c1-n1c(C)cc(/C=N/NC(N)=S)c1C	12%	-21	24%	-29	-4.4	-12
Cc1cc(C)n(-c2nc3c(c(=O)[nH]c(=O)n3C)n2C(C)C)n1	-4%	9	-3%	-1	-1.5	-17
Fc1ccc(CN(Cc2ccccc2)C(c2cccs2)c2nnnn2C2CCCCC2)cc1 (stereo not drawn)	12%	-1	-5%	-5	-4.3	-4
COc1cccc2[nH]c(C(=O)NCCc3ccccc3)cc12	0%	0	-9%	-3	4.4	-36
CC(C)OC(=O)CC1C(=O)NCCN1C(=S)NC(=O)c1cccs1 (stereo not drawn)	12%	-7	2%	7	-0.7	0
O=C(Cc1ccc(Cl)cc1)Nc1cccc(C(=O)Nc2ccccc2C(=O)O)c1	-12%[15.4 µM]	-23	-13%	-21	3.8	4
CCSC1=C(C#N)C2(CCCCC2)C(C#N)C(=O)N1 (stereo not drawn)	7%	5	-8%	5	-0.7	-2
Cc1ccc(C(=O)C(C)OC(=O)CN2C(=O)NC3(CCCC3)C2=O)cc1C (stereo not drawn)	0%	9	3%	-2	-5.8	-9
COc1ccc(N(CC(=O)NC2CCCC2)C(=O)CCC(=O)Nc2nc(C)cs2)cc1OC	-7%	0	5%	-7	-1.0	-3
CC(OC(=O)c1ccco1)C(=O)Nc1nc(-c2ccccc2)cs1 (stereo not drawn)	2%	-2	-15%	-2	-0.9	-5

In the list so far, these have four or more nitrogen atoms.
Compound	gsp agonist	CtBP-E1A blk	gsp antag	Six1-Eya2 blk	D2 ag	D2 potentiator
Cc1ccc(OCc2cc(C(=O)N(C)CCc3ccccn3)no2)cn1	-25%	6	4%	3	1.3	-5
FC(F)Oc1ccc(/C=N/n2c(Cc3ccc(Br)cc3)n[nH]c2=S)cc1	5%[15.4 µM]	-10	-24%	-7	-3.6	-9
CC(=O)N1CCN(c2nc3cc4c(cc3nc2NS(=O)(=O)c2ccccc2)OCCO4)CC1	-29%	-1	-12%	0	-0.5	14
C=CCn1c(=S)[nH]c2cc(C(=O)NCCc3ccc(S(N)(=O)=O)cc3)ccc2c1=O	?	-1	5%	1	3.4	-1
CC(C)NC(=S)N/N=C/c1c[nH]c2ccccc12	-5%[15.4 µM]	-5	17%	-13	3.4	-14
N#CC1(NC(=O)COC(=O)Cn2[nH]c(=O)c3ccccc3c2=O)CCCCC1	0%[15.4 µM]	-1	-1%	-1	-8.6	-18
CCNc1nc(NCC)n2c(SCC(=O)N3CC4(C)CC3CC(C)(C)C4)nnc2n1 (stereo not drawn)	13%	-20	-8%	-1	-3.1	-11
Cn1nnnc1SCC(=O)NC(=O)Cc1ccccc1	?	10	-1%	-2	-1.5	-1
CCOC(=O)C(C)Sc1nnc(NC(=O)c2cccc([N+](=O)[O-])c2C)s1 (stereo not drawn)	-16%	1	?	-4	-1.8	13
CN(Cc1ccc(F)cc1)S(=O)(=O)c1nnc(NC(=O)c2ccccc2)s1	?	-6	-28%	7	-3.3	-2
Cc1cccc(C)c1-n1c(C)cc(/C=N/NC(N)=S)c1C	12%	-21	24%	-29	-4.4	-12
Cc1cc(C)n(-c2nc3c(c(=O)[nH]c(=O)n3C)n2C(C)C)n1	-4%	9	-3%	-1	-1.5	-17
Fc1ccc(CN(Cc2ccccc2)C(c2cccs2)c2nnnn2C2CCCCC2)cc1 (stereo not drawn)	12%	-1	-5%	-5	-4.3	-4
COc1ccc(N(CC(=O)NC2CCCC2)C(=O)CCC(=O)Nc2nc(C)cs2)cc1OC	-7%	0	5%	-7	-1.0	-3

(further entries)
Compound	gsp agonist	CtBP-E1A blk	gsp antag	Six1-Eya2 blk	D2 ag	D2 potentiator
O=C1Nc2ccccc2C(O)(C(=O)N2CCCCC2)N1c1ccccc1 (stereo not drawn)	-1%	0	1%	2	-4.1	-8
CC1=C(C(=O)Nc2ccccc2C(=O)N2CCC(C)CC2)SCCO1	-5%	3	4%	3	-2.8	-10
COc1cc(C=O)ccc1OCC(=O)NC(C)(C)C	?	-7	-5%	4	0.0	-1
Cc1ccc(Cc2cnc(NC(=O)/C(C#N)=C/c3ccc(-c4ccc([N+](=O)[O-])cc4)o3)s2)cc1	0%	-7	5%	-1	1.7	22
Cc1cccc(NC(=O)c2nc[nH]c2C(=O)N[C@@H](CC(C)C)C(=O)OC(C)(C)C)c1	·	0	8%	-4	-6.1	-16
Cc1cc(OCn2ccc(C(=O)O)n2)ccc1Cl	-22%	3	-18%	4	-1.2	7
CCOC(=O)N1CCC(NC(=O)CN(C)S(=O)(=O)c2cc3c(cc2Cl)NC(=O)CO3)CC1	-60%[inhibitor]	19	-6%	-2	0.8	-9
Cc1ccc(N2CC(NS(=O)(=O)c3cc(F)ccc3F)CC2=O)cc1C (stereo not drawn)	-2%	-4	3%	10	0.7	-2
CCOC1=C2[C@H](c3ccccc3)N(S(=O)(=O)c3ccc(C)cc3)C[C@H]2n2c(=O)n(-c3ccccc3)c(=O)n2C1	·	-3	·	-3	-6.8	-4
CCCCN1C(=O)/C(=C(/C#N)C(N)=O)c2ccccc21	-1%	18	4%	1	-2.4	-20
O=C(O)c1ccc(N(c2ccccc2)c2ccccc2)cc1	-3%	-3	-14%	-4	3.3	-4
Cc1ccc(CCC(=O)Nc2ccc(Cl)cc2)o1	?	-7	10%	-8	-4.1	-10
O=C(N[C@@H](CCC/[N+]([O-])=C/c1ccccc1)C(=O)O)OCc1ccccc1	·	9	5%	5	-0.5	·
COC(=O)c1ccc(CSc2n[nH]c(C)n2)o1	18%	4	14%	-1	2.6	12
C=CCOc1ccc(C(=O)Nc2ccccc2C(=O)N2CCCC2)cc1	-17%	2	-18%	5	-2.1	-5
